Source: PubChem BioAssay (Southern Research Institute)
Mtb H37Rv: Mycobacterium tuberculosis H37Rv growth inhibition, cell based, confirmatory dose response (AID 1949); most inactive calls were filed without a number and no value below 0 was filed; M. tuberculosis H37Rv growth inhibition; 1.6% of 100,000 active; inhibition, % at 10 µg/mL, or IC50 in µg/mL where a hit was titrated;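 active means confirmed in a dose series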;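 further: bacteria grown 7 days with compound before Alamar blue readout; 0% = untreated bacteria and 100% = reference antibiotic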
The depositor's hits bear a star; i = inactive. The list is partial; the hit share may differ from the screen's.

structure	Mtb H37Rv
Clc1cccc(Cl)c1Cn1cnc2c(N3CCc4ccccc4C3)ncnc21	0.6%
COc1cc(C(=O)Oc2ccc(C)cc2Br)cc(OC)c1OC	35.1%
CCc1ccc(C2CC(=O)NC(SCC(=O)Nc3c(C)cc(C)cc3C)=C2C#N)cc1 (centres undefined)	i
Cc1ccccc1NC(=O)c1ccccc1C(F)(F)F	i
CCOC(=O)C(CC)n1cnc2scc(-c3ccc(CC)cc3)c2c1=O (centres undefined)	40.2%
COc1cccc(C(=O)Nc2ccc(OCC(=O)c3ccc(C)cc3)cc2)c1	i
CCOc1ccc(Br)cc1C1NC(=S)NC(C)=C1C(=O)Nc1ccccc1C (centres undefined)	i
Cc1cc(C(=O)CSc2ncn[nH]2)c(C)n1-c1cc(F)ccc1F	i
CCn1c(COc2ccccc2Cl)nnc1SCC(=O)Nc1cccc(C(F)(F)F)c1	i
Clc1ccc(-c2noc(CNC3CCCCC3)n2)cc1	i
CC(C(=O)NCC1(c2ccccc2)CCCC1)N1CCCCC1 (centres undefined)	i
NC(=O)c1conc1-c1ccccc1C(F)(F)F	i
Cc1ccc(-c2nn(C)c(=O)c3ccccc23)cc1S(N)(=O)=O	i
CCOc1ccc(NC(=O)Nc2ccc(S(=O)(=O)Nc3c(C)cc(C)cc3C)cc2)cc1	i
COc1ccc(NC(=O)C2CCN(S(=O)(=O)c3ccc(C)cc3)CC2)c(OC)c1	i
COc1cccc(C(=O)COc2ccc(NC(=O)c3cccs3)cc2)c1	i
O=S1(=O)N=C(Nc2ccccn2)c2ccccc21	i
S=C(NCCc1ccccc1)Nc1ccccc1N1CCOCC1	i
Cc1nn2c(-c3ccco3)nnc2c2ccccc12	i
CCCOC(=O)c1ccc2c(c1)C(=O)N(c1cccc(C)c1)C2=O	i
Cn1c(CSc2nc3ccccc3s2)n[nH]c1=S	i
CCOc1ccccc1CNc1ccc(N2CCN(C(C)=O)CC2)cc1	1.1%
COc1ccc(CNC(=O)c2ccc(Cn3cc(Br)cn3)o2)cc1	i
O=C1CC(N2CCC(c3nc4ccccc4[nH]3)CC2)C(=O)N1c1ccccc1Cl (centres undefined)	i
CCOC(=O)C1=C(C)NC2=C(C(=O)c3ccccc32)C1c1cccc(OC)c1OC (centres undefined)	2.8%
Cc1ccsc1C(=O)NNC(=S)Nc1ccccc1C(F)(F)F	i
CCN(CC)CCn1c(C)nc(=O)c(-c2ccccc2)c1C	i
CCOC(=O)c1c(NC(=O)C2(C)Cc3ccccc3C(=O)O2)sc(C)c1C (centres undefined)	i
CC(=O)Nc1ccccc1-c1ccccc1NC(C)=O	i
O=C1CC(c2c(F)cccc2Cl)c2cc3c(cc2N1)OCO3 (centres undefined)	i
CCCC(=O)Nc1ccc(Sc2ccc([N+](=O)[O-])cc2)cc1	i
CCOc1ccc(C(=O)NC(=S)Nc2ccccc2C(=O)O)cc1Cl	i
CN(Cc1nnc(SCC(=O)Nc2ccc(Cl)cc2)n1C)S(=O)(=O)c1ccccc1	i
Cc1onc(-c2c(F)cccc2Cl)c1C(=O)NC(=S)Nc1ccccc1C(F)(F)F	3.2%
O=C(N1CCc2ccccc2C1)C(Cl)(Cl)Cl	i
COc1ccc(N2CC(C(=O)Nc3ncccc3C)CC2=O)cc1 (centres undefined)	i
CC1CN(C(=S)NCc2ccc(Cl)cc2)CC(C)O1 (centres undefined)	i
COc1ccc(C(=O)Nc2ccccc2C(=O)NCc2cccnc2)cc1	0.6%
Cc1c(C)n(C(=O)CSc2nnc(SCc3ccc(Cl)cc3)s2)c2ccccc12	i
CCCOc1ccc(C(=O)Nc2ccc(N3CCOCC3)c(Cl)c2)cc1	i
O=C(COc1ccc([N+](=O)[O-])cc1)Nc1ccc(S(=O)(=O)N2CCCCC2)cc1	i
CC(C)C(NC(=O)Cc1ccc(-c2ccccc2)cc1)c1ccccc1 (centres undefined)	i
CCCc1ccccc1OCCNC(=O)c1cc(OC)cc(OC)c1	15.2%
CCCCSc1nnc2[nH]c(=O)cc(N)n12	3.4%
O=C(c1ccc([N+](=O)[O-])cc1)N1CCN(c2ccc(Cl)cc2)CC1	i

Some of the entries so far, as labelled records:
CCCc1ccccc1OCCNC(=O)c1cc(OC)cc(OC)c1
- Mtb H37Rv = 15.2%

CCCCSc1nnc2[nH]c(=O)cc(N)n12
- Mtb H37Rv = 3.4%

Next section
structure	Mtb H37Rv
NC(=O)C1CCN(C(=S)Nc2ccc(Oc3ccccc3)cc2)CC1	i
O=C(Nc1ccc(Cl)c(Cl)c1)c1ccc(CN2CCOCC2)cc1	13.9%
COc1ccc(NC(=O)C2CCN(S(C)(=O)=O)CC2)c(OC)c1	1.5%
O=C(CSc1nc2sc3c(c2c(=O)n1-c1ccc(F)cc1)CCCC3)N1CCCC1	i
CC(C)NC(=O)c1ccccc1NC(=O)c1sc2ccccc2c1Cl	i
CC(=O)N1c2ccccc2C(Nc2ccccc2)CC1C (centres undefined)	i
CNC(=S)Nc1ccc(C(N)=O)cc1	3.1%
COc1ccc(NC(=O)CCCOc2ccccc2)cc1Cl	17.9%
CC(=O)c1cccc(NC(=O)CSc2nc3cc(Cl)ccc3s2)c1	i
CNc1cc(N2CCN(C(=O)c3ccc(OC)cc3)CC2)ccc1[N+](=O)[O-]	i
COCCCn1c(C23CC4CC(CC(C4)C2)C3)n[nH]c1=S	0.4%
O=C(Nc1ccc(N2CCCC2)c(Cl)c1)c1ccc2c(c1)OCO2	18.4%
CS(=O)(=O)Nc1cc(Cl)ccc1Oc1ccccc1	i
O=C(O)CCCC(=O)Nc1cccc(C(=O)Nc2ccccc2C(F)(F)F)c1	i
Cc1ccccc1CSCCNC(=O)c1cccc([N+](=O)[O-])c1C	i
CCOc1cc(C2NC(=S)NC(C)=C2C(=O)NCc2ccccc2)ccc1OC (centres undefined)	i
N#Cc1cccc(CSc2nnc(-c3ccccc3O)n2Cc2ccccc2)c1	i
O=C(Nc1cccc([N+](=O)[O-])c1)c1ccccc1-c1ccccc1	2.5%
Cc1ccc(N2CC(C(=O)Nc3cc(C)on3)CC2=O)cc1 (centres undefined)	i
Cc1ccc([N+](=O)[O-])cc1NC(=O)C1CCCCC1C(=O)O (centres undefined)	i
O=C(C(Cc1ccccc1)N1C(=O)c2ccccc2C1=O)N1CCc2ccccc21 (centres undefined)	i
S=C(NC1CCCCC1)N1CCN(Cc2ccccc2Cl)CC1	i
CCN(Cc1ccccc1)C(=O)CSCc1ccccc1	1.7%
Cn1cc(Cl)c(C(=O)NCC(=O)c2ccccc2)n1	0.7%
COc1cc(OC)c(OC)cc1CN1CCN(CC2CC3C=CC2C3)CC1 (centres undefined)	i
CC(=O)Nc1nnc(-c2ccc(Cn3c(-c4cscn4)nc4ccccc43)cc2)s1	i
COc1cc(C)c(S(=O)(=O)NCc2ccccn2)cc1C	i
COc1ccc(-c2cc(C(=O)NCCO)c(C)o2)cc1OC	i
CCOC(=O)Cc1csc(NC(=O)CSc2nc(SC)ns2)n1	1.0%
COc1ccc(C(=O)NCCOc2ccccc2Cl)c(OC)c1OC	0.7%
CC(C)(C)c1ccc(-c2n[nH]c(=S)n2C2CCCCC2)cc1	43.7%
CCCOc1ccc(CNC(=O)NCc2ccc(OC(C)C)cc2)cc1	43.1%
CC(=O)c1cccc(NC(=O)CN2C(=O)C3C4CCC(C4)C3C2=O)c1 (centres undefined)	i
CCOc1ccc(-c2c(C)sc(N)c2C(=O)OC(C)C)cc1	i
Fc1ccccc1OCCN1CCc2ccccc2C1	4.3%
N#CC1=C(N)Oc2n[nH]c(-c3cccnc3)c2C1c1cc(F)ccc1F (centres undefined)	i
CCn1c(SCC(=O)Nc2nccs2)nnc1-c1ccc(Br)cc1	i
O=C(NC1c2ccccc2-c2ccccc21)c1cccs1	i
CCCOc1ccc(/C(O)=C2\C(=O)C(=O)N(c3nc(C)c(C(=O)OC)s3)C2c2ccco2)cc1 (centres undefined)	i
CCNc1nc(NCC)nc(SCC(C)=O)n1	i
CCOC(=O)c1cnn(-c2ccccc2)c1NC(=O)C(C)(C)C	i
Cc1ccc(-c2csc3ncnc(N4CCN(Cc5ccc6c(c5)OCO6)CC4)c23)cc1	i
COc1cc(C(=O)Oc2ccc(Br)c3ccccc23)cc(OC)c1OC	i
Cc1ccc(-c2cc3c4cccn4ccn3c2)cc1	i
COc1ccc(S(=O)(=O)N(CC(=O)N(C)C)c2ccc(C)cc2)cc1Br	i

4 entries from above, with each value named.
O=C(NC1c2ccccc2-c2ccccc21)c1cccs1
  Mtb H37Rv = i
CCNc1nc(NCC)nc(SCC(C)=O)n1
  Mtb H37Rv = i
CCOc1ccc(-c2c(C)sc(N)c2C(=O)OC(C)C)cc1
  Mtb H37Rv = i
CCn1c(SCC(=O)Nc2nccs2)nnc1-c1ccc(Br)cc1
  Mtb H37Rv = i

Continuation:
structure	Mtb H37Rv
CC1CCc2c(sc3nc(-c4ccc5c(c4)OCO5)[nH]c(=O)c23)C1 (centres undefined)	i
Cc1cc(C)c(NC(=O)c2ccc(F)cc2)c([N+](=O)[O-])c1	i
N=c1n(CCO)c2ccccc2n1Cc1ccccc1F	i
Cc1cc(C(=O)NC(C)c2ccccc2)c2cc(F)ccc2n1 (centres undefined)	i
O=C(Oc1ccc2c3c(c(=O)oc2c1)CCCC3)c1ccccc1Cl	i
O=C1CC(=O)N(Cc2ccco2)C(=O)N1	i
O=C(CSc1ccc2ccccc2n1)Nc1ccc2c(c1)OCCO2	i
COc1ccc(Cl)cc1S(=O)(=O)N1CCN(c2ccc(F)cc2)CC1	i
CCOc1cc(C(=O)Nc2ccc(OC(C)C)cc2)cc(OCC)c1OCC	0.4%
C=CCNC(=O)CN(c1ccccc1OCC)S(=O)(=O)c1ccccc1	i
Nc1cccc(OCC(=O)N2CCOCC2)c1	2.5%
CCC(C)C(=O)Nc1ccc(NC(=O)c2cccs2)cc1 (centres undefined)	i
COc1cccc(-n2nnnc2S(C)(=O)=O)c1	1.16µg/mL*
Cc1cccc(C(=O)Nc2ccc(I)cc2C(=O)N2CCCC2)c1	7.6%
Cc1ccc(SCC(=O)N2N=CCC2c2ccccc2)cc1 (centres undefined)	i
Nc1nc(SCc2ccccc2)[nH]c(=O)c1-c1ccccc1	i
CCC1C(=O)N=C(SCC(=O)NCc2ccccc2)NC1=O (centres undefined)	i
COCC(=O)NNC(=S)Nc1sc(C)c(C)c1C(=O)OC	i
CS(=O)(=O)N(CC(=O)Nc1ccc(F)cc1F)c1cc(Cl)ccc1Cl	1.1%
CCOc1ccc(NC(=S)NC(NC(=O)c2cccc(OC)c2)C(Cl)(Cl)Cl)cc1 (centres undefined)	39.6%
COc1ccc(S(=O)(=O)N(CC(=O)Nc2ccc(NC(C)=O)cc2)c2ccc(C)cc2)cc1	i
Cn1c(O)c(C(=O)c2ccccc2Cl)c(=O)n(C)c1=O	i
CCCc1ccc(OCC(=O)Nc2c(C)cccc2CC)cc1	i
COc1cccc(C2C(C(=O)c3cccs3)=C(O)C(=O)N2CCCN2CCOCC2)c1OC (centres undefined)	i
CC(Oc1ccc(Cl)cc1Cl)C(=O)NC(=S)Nc1cccc(NC(=O)c2cccs2)c1 (centres undefined)	i
CC(C)c1ccc(NC(=O)CN(C)S(=O)(=O)c2ccc(Br)cc2)cc1	6.4%
CN(CC(=O)Nc1ccc(OCc2ccccc2)cc1)S(=O)(=O)c1ccc(Cl)cc1	i
O=C(Nc1ccon1)c1sc2cc(F)ccc2c1Cl	i
CNC(=O)CN(c1ccc(OC)cc1OC)S(=O)(=O)c1ccc(C)cc1	i
COc1ccc(N2CCN(C(=O)C3CCN(S(=O)(=O)c4ccc(Cl)cc4)CC3)CC2)cc1	4.8%
Cn1c(=O)c2ccccc2n(CC(=O)N2CCCCC2)c1=O	i
CCN(C(=O)Cc1ccc(C)cc1)C1CCCCC1	i
CCOC(=O)c1oc2cc(O)c(CC)cc2c(=O)c1-c1ccc2c(c1)OCCO2	i
CCOC(=O)c1sc(NC(=O)c2ccco2)nc1-c1ccccc1	i
COc1ccc(C(NC(=O)Cc2ccc(-c3ccccc3)cc2)c2ccccc2)cc1 (centres undefined)	i
Cc1cccc(NC(=O)c2ccc(OC(C)C)cc2)c1C	0.6%
Cc1ccc(S(=O)(=O)NCC(=O)N2CCCC2)cc1	i
Cc1ccc(N2C(=O)c3cccc4c(N5CCOCC5)ccc(c34)C2=O)c(C)c1	i
c1ccc(C2CCC(N3CCC(N4CCN(c5ccccc5)CC4)CC3)CC2)cc1 (centres undefined)	i
CCN(c1cccc(C)c1)S(=O)(=O)c1ccc(O)c(C(=O)O)c1	i
CC(NC(=O)c1c(NC(=O)c2ccccc2F)sc2c1CCCC2)c1ccccc1 (centres undefined)	i
O=C(c1ccccc1F)N1CCN(Cc2cccc(Cl)c2)CC1	i
CCN(CC)C(=O)COc1ccc(-c2nnc(Nc3ccc(C(N)=O)cc3)c3ccccc23)cc1	i

Some of the entries above in a different format:
c1ccc(C2CCC(N3CCC(N4CCN(c5ccccc5)CC4)CC3)CC2)cc1 (centres undefined)
  Mtb H37Rv: i
CCN(c1cccc(C)c1)S(=O)(=O)c1ccc(O)c(C(=O)O)c1
  Mtb H37Rv: i
